Compound activity from PubChem.
miR-21 FLuc – raises the signal of a miR-21 reporter. HeLa miR-21 FLuc reporter, luciferase, 48 h. Potency, µM (top dose mostly 38.3 µM), without a hit: top-dose reporter change, positive = more light. 340,000 tested, under 10 active; active = well fitted rising curve with a large enough effect; inconclusive = small, poorly fitted or top-dose-only effect; inactive = no such curve, though single readings can be large or run the other way;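 also: % of control where 0% means no effect; miR-21 action dims this reporter so a rising signal means less miR-21 action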
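Compounds were titrated across several concentrations (up to approximately 40 uM) and incubated 48 hours with HeLa miR-21-FLuc reporter cells (miR-21 target sequence downstream of FLuc, endogenous miR-21). Readout was firefly luciferase luminescence after lytic detection reagent.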
Starred values were filed as active, the others as inactive; ? = inconclusive.

SMILES	miR-21 FLuc
CNC(=O)C1CCC(Cn2c(=O)c3sccc3n(CC(=O)Nc3ccc(C)c(F)c3)c2=O)CC1 (centres undefined)	10%
O=C(CSc1nnc(CNC(=O)c2ccccc2)n1-c1cccc(Cl)c1)Nc1ccccc1F	13%
CCc1ccc(NC(=O)Cn2c(=O)n(CCC(=O)N3CCc4ccccc4C3)c(=O)c3ccccc32)cc1	1%
Cc1ccc(CNC(=O)C2CCN(S(=O)(=O)Cc3ccccc3)CC2)cc1	-6%
CCn1cc2nc(SCc3cc(C)ccc3C)n(Cc3ccc(OC)cc3)c(=O)c2n1	18%
Cc1ccc(-n2ncc3c(NCCO)ncnc32)cc1Cl	-52%
Cc1ccc(S(=O)(=O)c2nc(-c3ccco3)oc2SCC(=O)c2ccc(Cl)cc2)cc1	?
CN1CCN(CCCNC(=O)c2cnn(-c3ccc(F)cc3)c2-n2cccc2)CC1	-5%
CCOc1ccccc1NC(=O)COc1cccc2c(=O)n(CCOC)ccc12	-16%
Cc1ccc(NC(=O)C2CCCN(c3ncnc4onc(C)c34)C2)c(Cl)c1 (centres undefined)	19%
Cc1nc2c(c(C)nn2-c2ccccc2)c(C)c1CCC(=O)NCc1ccccc1	-2%
COc1cc(OC)c(NC(=O)NCc2ccc3c(c2)CCN3C(C)=O)cc1Cl	0%
CCN(Cc1ccccc1)C(=O)CN(c1ccc(OC)cc1)S(=O)(=O)c1c(C)nn(C)c1C	-1%
Cc1c2cnn(-c3ccccc3)c(=O)c2c(C)n1CC(=O)N1CCN(c2ccc(F)cc2)CC1	17%
CC(C)Cn1c(=O)c2ccccc2n2c(-c3cccc(Cl)c3)nnc12	14%

The closing two compounds of the section before are carried over, then new ones follow:
SMILES	miR-21 FLuc
Cc1c2cnn(-c3ccccc3)c(=O)c2c(C)n1CC(=O)N1CCN(c2ccc(F)cc2)CC1	17%
CC(C)Cn1c(=O)c2ccccc2n2c(-c3cccc(Cl)c3)nnc12	14%
O=c1cc(-c2ccccc2)n2c(SCc3ccccc3Cl)nnc2[nH]1	1%
COCCn1c(SCC(=O)c2ccc(C)cc2C)nc2cc(C(=O)NC3CCCC3)ccc2c1=O	1%
Cc1ccc(-c2c(C(=O)Nc3ccc(F)c(F)c3)oc(=O)c3ccccc23)cc1	22%
CC1CCN(S(=O)(=O)c2ccc3nc(Nc4cccc(C(F)(F)F)c4)ccc3c2)CC1	21%
CCCNC(=O)Cn1nc(-c2ccc(OC)cc2)c2cnc3ccc(F)cc3c21	-20%
O=C1c2ccccc2-c2onc3c(NCCO)cc(NC4CCCCC4)c1c23	?
COc1cn(CC(=O)Nc2cc(C)cc(C)c2)c(CN2CCCCC2)cc1=O	-2%
COc1ccc2nc(NC(=O)c3nc(S(=O)(=O)Cc4ccccc4)ncc3Cl)sc2c1	?
O=C(NCc1ccccc1Cl)c1ccc2c(O)c(S(=O)(=O)c3ccccc3)c(=O)[nH]c2c1	-3%
COC(=O)c1ccc(NC(=O)CSc2cn(CC(=O)N3CCCCCC3)c3ccccc23)cc1	28%
Cc1nc(N2CCCC2)c2c(C(=O)N3CCN(c4cccc(C)c4C)CC3)c(C)oc2n1	-1%
COc1ccc(C(=O)NCCc2nc3ccccc3[nH]2)cc1	-17%
CCCSCCCNC(=O)CN1C(=O)COc2ccc(S(=O)(=O)N3CCC(C)CC3)cc21	-3%
O=C(NCc1cccs1)c1ccc2c(c1)sc1nc(-c3ccc(F)cc3)cn12	0%
O=C(Nc1cccc(F)c1)c1ccc2oc(=O)n(Cc3ccccc3)c2c1	21%
CCN(CC)CCCNC(=O)CN1N=C(c2ccccc2)CCC1=O	-3%
COc1ccc(C(=O)NC(c2ccc(Cl)cc2)c2cc(Cl)c3cccnc3c2O)cc1 (centres undefined)	21%
Cc1c(Cl)cccc1NC(=O)Cn1nc(C(F)(F)F)c2c1CCC2	-8%
Cc1ccc2cc3cc(C(=O)N4CCN(c5ccc(Cl)cc5)CC4)oc3nc2c1	-2%
CC1CCN(S(=O)(=O)c2ccc3c(c2)N(CC(=O)NCCN(C)C)C(=O)CO3)CC1	-7%
CCn1c(=O)cc(SCC(=O)NCc2ccc(Cl)cc2)c2ccccc21	14%
COc1ccc(NC(=O)Cn2c(=O)n(Cc3ccc(C(=O)NCc4ccccc4Cl)cc3)c(=O)c3ccccc32)cc1	9%
Cc1ccc(C2c3[nH]c4ccccc4c3CCN2C(=O)c2cccc(C)c2)cc1 (centres undefined)	?
Cc1c(-c2cccc(NC(=O)C(C)(C)C)c2)nc2ncccn12	-4%
O=C(CSc1nc(=O)n(Cc2cccnc2)c2c1CCC2)Nc1ccc(F)cc1F	-3%
CC(C)(C)C1CCc2c(sc3nc(-c4cc5ccccc5oc4=O)[nH]c(=O)c23)C1 (centres undefined)	-48%
CCOc1cc(C#N)c(NC(=O)Cn2nnc(-c3ccc(C)cc3)n2)cc1OCC	-1%
CC(C)(C)C1CCc2c(sc(NC(=O)c3cccc(Cl)c3)c2C(=O)NCc2ccco2)C1 (centres undefined)	0%
Cn1cnc2c(=O)oc3ccc(S(=O)(=O)N4CCN(c5ccccc5)CC4)cc3c21	-2%
CCCCN(CCCC)CCNC(=O)Cn1nc(CC)n2c(cc3sc(C)cc32)c1=O	6%
COc1ccc(-n2nc(C(=O)Nc3ccccn3)c3c4ccccc4n(C)c3c2=O)cc1	-1%
Cc1ccc(NC(=O)c2cc3cc(C)ccc3n2C)cc1	-6%
Cc1cccc(NC(=O)CSc2nc3c([nH]c4ccccc43)c(=O)n2-c2ccc(F)cc2)c1C	2%
O=S1(=O)N=C(Nc2cccc(C(F)(F)F)c2)c2ccccc21	6%
CC(C)c1ccc(NS(=O)(=O)c2ccc3[nH]cc(C(=O)NCCc4ccccc4)c(=O)c3c2)cc1	-9%
COc1ccc(CNC(=O)CCc2c(C)c3cc4c(C)c(C)oc4cc3oc2=O)cc1	-9%
Cc1ccc(NC(=O)C2CCN(c3nc4ccccc4nc3C(F)(F)F)CC2)cc1C	1%
CN(C)c1ccc(C(CNC(=O)c2ccccc2)N2CCc3ccccc32)cc1 (centres undefined)	-38%
COc1ccc(-c2nn3c(=O)cc(CN4CCN(C(=O)Nc5cc(C)ccc5C)CC4)nc3s2)cc1	-5%
CCOc1ccccc1NC(=O)CCc1nc(-c2cccc(C)c2)no1	-5%
Cc1cccc(-n2c(=O)c3c(c4cc(C)ccc4n3C)n(Cc3ccccc3F)c2=O)c1	-3%
COCCn1c(C)cc(O)c(C(c2ccccc2)N2CCN(c3ccccc3)CC2)c1=O (centres undefined)	-1%
Cc1cccc(NC(=O)Cn2c(=O)ccc3cc(S(=O)(=O)N4CCCC4)ccc32)c1C	1%
COc1ccccc1C(=O)Nc1nnc(SCc2cc(=O)c3cc(Cl)ccc3[nH]2)s1	0%
Cc1ccc(OCC(=O)Nc2ccc3nc(SCC(=O)N4CCCC4)sc3c2)cc1C	-6%

The list goes on; the last 6 above are carried over.
SMILES	miR-21 FLuc
CCOc1ccccc1NC(=O)CCc1nc(-c2cccc(C)c2)no1	-5%
Cc1cccc(-n2c(=O)c3c(c4cc(C)ccc4n3C)n(Cc3ccccc3F)c2=O)c1	-3%
COCCn1c(C)cc(O)c(C(c2ccccc2)N2CCN(c3ccccc3)CC2)c1=O (centres undefined)	-1%
Cc1cccc(NC(=O)Cn2c(=O)ccc3cc(S(=O)(=O)N4CCCC4)ccc32)c1C	1%
COc1ccccc1C(=O)Nc1nnc(SCc2cc(=O)c3cc(Cl)ccc3[nH]2)s1	0%
Cc1ccc(OCC(=O)Nc2ccc3nc(SCC(=O)N4CCCC4)sc3c2)cc1C	-6%
CCc1ccccc1NC(=O)c1nnn(CC(=O)Nc2c(C)cc(C)cc2C)c1N	-32%
O=C(/C=C/c1ccccc1)N1CCN(Cc2cc(=O)n3nc(-c4ccccc4)sc3n2)CC1	-5%
O=C(Cn1c(=O)n(Cc2ccc(F)cc2)c(=O)c2sc3ccccc3c21)Nc1ccc(F)cc1F	0%
COc1ccc2c(c1)c1c(c(=O)n(CCc3ccccc3)c(=O)n1Cc1cccc(F)c1)n2C	4%
Cc1ccc(-n2nc(C(=O)N3CCN(c4cc(Cl)ccc4C)CC3)c(=O)n(C)c2=O)cc1	-4%
COC(=O)c1ccc2c(c1)N(Cc1ccc(Cl)cc1)C(=O)c1ccccc1S2	-4%
CCCN(c1ccccc1CC)S(=O)(=O)c1ccc2c(c1)CC(C)N2C(=O)C1CC1 (centres undefined)	?
CCOC(=O)N1CCc2c(sc3c2C(=O)NC(c2ccc(N(C)C)cc2)N3)C1 (centres undefined)	16%
Cc1ccc(S(=O)(=O)Nc2ccc3c(c2)CCCN3C(=O)c2cccs2)cc1C	12%
CCOc1ccc(-c2nnc(SCC(=O)c3ccc(Br)cc3)n2-c2ccccc2)cc1	-1%
O=C(C1CCCN(S(=O)(=O)c2ccc(Br)s2)C1)N1CCN(c2ccccc2F)CC1 (centres undefined)	-2%
Cn1c(=O)n(C)c2cc(NS(=O)(=O)c3ccccc3)c(NCc3ccccc3)cc21	-11%
CCOc1ccc(CCNC(=O)c2c(C)oc3ncn(CC(C)C)c(=O)c23)cc1	-13%
O=S(=O)(c1ccccc1)c1nnn2c1nc(NCc1ccccc1)c1sccc12	1%
CCCN(CCC)C(=O)c1c[nH]c2ccc(S(=O)(=O)N(C)c3ccc(OCC)cc3)cc2c1=O	11%
COCCNC(=O)c1ccc(NC(=O)N2CCCCc3ccccc32)cc1	0%
COc1cc(-c2nnc(SCC(=O)Oc3ccc(C)cc3C)o2)cc(OC)c1OC	4%
COc1cc(/C=C/c2nc(C#N)c(N3CCC(C)CC3)o2)cc(OC)c1OC	8%
Cc1sc2ncn(CC(=O)N3CCN(c4ccccc4)CC3)c(=O)c2c1S(=O)(=O)N1CCC(C)CC1	18%
CCCN(CCC)CCCNC(=O)c1cn(C)c2ccc(S(=O)(=O)N3CCOCC3)cc2c1=O	-4%
COC(=O)c1ccc(NC(=O)N2CCN(c3nnc(C)c4c(C)n(-c5ccccc5)nc34)CC2)cc1	-43%
CCc1ccc(-n2nc(C)c3c(C)cc(=O)n(CC(=O)Nc4ccccc4C(=O)OC)c32)cc1	3%
COc1ccc(OCc2nc3c4c(-c5ccccc5)c(-c5ccccc5)oc4ncn3n2)cc1	4%
O=C(NCc1ccc(Cl)cc1)c1ccc2c(c1)NC(=O)C(CS(=O)(=O)Cc1ccccc1Cl)N2 (centres undefined)	0%
CCOc1ccc(Cn2c(CNS(=O)(=O)c3ccc(C(C)(C)C)cc3)nc3cccnc32)cc1	2%
CCOc1nc(NC(=O)NS(=O)(=O)Oc2ccccc2)nc(-c2ccccc2)n1	-19%
CCN(CC)C(=O)Cn1c(=O)n(-c2ccc(Cl)cc2)c(=O)c2c3c(sc21)CCC3	-4%
COc1ccc(CC(=O)N2CCc3c([nH]c4ccccc34)C2c2ccc(SC)cc2)cc1 (centres undefined)	12%
COc1ccccc1OCC(=O)NCc1nc(-c2ccc(Cl)cc2)no1	-2%
COc1ccc(C(=O)NCC(c2cccs2)S(=O)(=O)c2ccc(F)c(C)c2)cc1 (centres undefined)	9%
COc1ccc(S(=O)(=O)c2c(C(=O)c3ccc(C)c(C)c3)cnc3ccc(C)cc23)cc1	11%
Fc1ccc(CNc2ncnc3c2c(-c2ccccc2)cn3-c2ccccc2)cc1	13%
Cc1c(C(=O)OC2CCCCCC2)[nH]c2c1C(=O)CC(c1ccc(N(C)C)cc1)C2 (centres undefined)	3%
COc1ccc(Cn2c(SCc3ccc(C(=O)NCCc4ccccc4)cc3)nc3cccnc32)cc1	-8%
O=S(=O)(NCCc1nnc2ccc(SCc3cccc(Cl)c3)nn12)c1ccccc1	-3%
Cn1c(=O)c2cc(C(=O)N3CCN(c4cccc(C(F)(F)F)c4)CC3)sc2c2ccccc21	-2%
CCC(O)c1cc2c(cc1NC(=O)c1cccc(Br)c1)OCCO2 (centres undefined)	-2%
Cn1c(=O)oc2cc(S(=O)(=O)CCC(=O)N3CCN(c4cccc(Cl)c4)CC3)ccc21	1%
COc1cc(OC)c(NC(=O)CSCc2nc(-c3ccc(OC)c(OC)c3)no2)cc1Cl	3%
O=c1c2sc3ccccc3c2n(Cc2ccccc2)c(=O)n1Cc1ccccc1	-8%
CS(=O)(=O)N1CCc2cc(C(=O)NCCc3ccccc3)ccc21	-53%
COc1cc(Nc2nc3c(S(=O)(=O)c4ccc(C)c(C)c4)nnn3c3ccsc23)cc(OC)c1	-2%
CCOc1ccc(CC(=O)Nc2c(C(=O)c3ccc(Cl)cc3)oc3ccccc23)cc1OCC	-2%
COc1ccc(Cn2ccn(Cc3cccc(Cl)c3)c(=O)c2=O)cc1	3%
Cc1ccc(SCC(=O)Nc2ccc3oc(-c4cccc(Cl)c4)nc3c2)cc1	-32%
CCN(CC)c1ccc(NC(=O)c2cnc3c(-c4ccccc4)c(C)nn3c2C)c(C)c1	5%
Clc1ccc(N2CCN(c3ncnc4c3nc3n4CCCC3)CC2)cc1	16%
CCCn1c(-c2cccc(Br)c2)nc2ccccc21	9%
COc1ccc(CC(=O)NCCc2sc3nc(-c4ccc(OC)cc4)nn3c2C)cc1	5%
CCOc1ccccc1N(CC)C(=O)Nc1cn(C)c(=O)c2ccccc12	-6%
COc1ccc(CC(=O)Nc2cc(-c3nc4cccnc4s3)ccc2C)cc1	-16%
Cc1ccccc1OCCSc1nnc(-c2ccc([N+](=O)[O-])cc2)o1	-6%

Arranged by length of the SMILES (high to low): part of the list above
SMILES	miR-21 FLuc
COc1ccc(CC(=O)NCCc2sc3nc(-c4ccc(OC)cc4)nn3c2C)cc1	5%
Cc1ccccc1OCCSc1nnc(-c2ccc([N+](=O)[O-])cc2)o1	-6%
CCOc1ccccc1N(CC)C(=O)Nc1cn(C)c(=O)c2ccccc12	-6%
Clc1ccc(N2CCN(c3ncnc4c3nc3n4CCCC3)CC2)cc1	16%

An excerpt. The share of hits here may be higher or lower than overall.
